# Hedgehog = Hh protein inhibition, biochemical readout – plate reader, single concentration, primary screen (AID 588832). Biochemical plate reader assay, Hedgehog inhibition; stronger effect = higher value. 8,000 tested, under 10 active. inhibition, % at 30.3 µM; in the data active means inhibition from about 57%;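 further: 0% = neutral control wells and 100% = positive control wells; cholesterol-driven self-cleavage of fly hedgehog protein by fluorescence polarization; read one hour after cholesterol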
# An asterisk follows results filed as active.
SMILES,Hedgehog
O=C(CSc1cn(Cc2cccc(F)c2)c2ccccc12)NCc1ccc(F)cc1,19.1
N#CC1=C2SCN(Cc3ccco3)CN2C(=O)CC1c1c(F)cccc1Cl (centres undefined),1.8
Cc1cc(C)nc(/N=C2\NC(=O)CC(C(=O)O)N2CCc2c[nH]c3ccccc23)n1 (centres undefined),-1.9
CCSc1nnc(Cn2c(=O)sc3ccccc32)n1-c1ccc(OC)cc1,17.4
CN1CCN(CCCNC(=O)c2ccc(CS(=O)(=O)c3ccc(Br)cc3)o2)CC1,20.0
O=C(CCn1c(=O)oc2ccccc21)Nc1cccc(Cl)c1,24.1
O=C(c1ccc2c(c1)N(Cc1ccccc1)CCS2)N1CCCCC1,42.1
CCCCNC(=S)NCc1ccc2c(c1)cc(C)n2C,9.7
Cc1cccc(-c2noc(CCc3ccccc3)n2)c1,8.3
CC(C)N1CCc2c(sc(NC(=O)c3cc4cc([N+](=O)[O-])ccc4s3)c2C(N)=O)C1,6.2
COc1ccc(NC(=O)C2CCCCN2S(=O)(=O)c2ccc(F)cc2)cc1 (centres undefined),4.2
O=C(CCC(=O)N1CCSc2ccccc21)NC1CCCCC1,4.2
Cn1c(=O)c2c(nc(CN3CCN(C(=O)c4ccco4)CC3)n2CCCc2ccccc2)n(C)c1=O,8.4
O=C(/C=C/c1ccccc1)NCCc1ccccc1,8.6
O=C(NC(CSSCC(NC(=O)c1ccccc1)C(=O)O)C(=O)O)c1ccccc1 (centres undefined),3.5
CCn1cc(C(=O)N2CCOCC2)c(=O)c2cc(S(=O)(=O)N(C)C)ccc21,17.4
CC1CN(C(=O)CCC(=O)NCc2ccc(F)cc2)c2ccccc2S1 (centres undefined),8.7
COC(=O)Cn1c(CN2CCN(c3ccccc3F)CC2)nc2c1c(=O)n(C)c(=O)n2C,3.5
C[C@]12CCC[C@H](O1)c1c(cc3c(c1O)C(=O)c1c(O)cc(O)cc1C3=O)O2,5.2
COc1ccc(OC)c(C2CC(=O)N3CN(c4cccc(Cl)c4)CSC3=C2C#N)c1 (centres undefined),8.7

# Sorted by the number under Hedgehog (highest first): 7 of the compounds above.
SMILES,Hedgehog
O=C(c1ccc2c(c1)N(Cc1ccccc1)CCS2)N1CCCCC1,42.1
O=C(CSc1cn(Cc2cccc(F)c2)c2ccccc12)NCc1ccc(F)cc1,19.1
COc1ccc(OC)c(C2CC(=O)N3CN(c4cccc(Cl)c4)CSC3=C2C#N)c1 (centres undefined),8.7
CC(C)N1CCc2c(sc(NC(=O)c3cc4cc([N+](=O)[O-])ccc4s3)c2C(N)=O)C1,6.2
COc1ccc(NC(=O)C2CCCCN2S(=O)(=O)c2ccc(F)cc2)cc1 (centres undefined),4.2
O=C(NC(CSSCC(NC(=O)c1ccccc1)C(=O)O)C(=O)O)c1ccccc1 (centres undefined),3.5
N#CC1=C2SCN(Cc3ccco3)CN2C(=O)CC1c1c(F)cccc1Cl (centres undefined),1.8

# The results go on.
SMILES,Hedgehog
COC(=O)C1=C(C)Nc2ncnn2C1c1ccc(C)o1 (centres undefined),23.4
COC(=O)c1c(NC(=O)C(C)C)sc2c1CCN(Cc1ccccc1)C2,-1.8
Cc1ccc(C2=NS(=O)(=O)N(C)C(C(=O)NC3CCCC3)=C2)cc1,-1.8
COc1cc(Cl)c(S(=O)(=O)N2CCN(Cc3ccc4c(c3)OCO4)CC2)cc1Cl,23.4
CCOC(=O)c1c(NC(=O)c2cc(CC(C)C)on2)sc(C(C)=O)c1C,1.8
CCn1c(=O)cc(OCC(=O)Nc2ccccc2C#N)c2ccccc21,12.5
COc1ccccc1CNS(=O)(=O)c1c(C)nc2sccn2c1=O,6.8
CNC(=O)c1ccsc1NC(=O)c1ccc(S(=O)(=O)N2CCc3ccccc32)cc1,9.7
COc1ccccc1N1CCN(Cc2cc(Br)c(O)c3ncccc23)CC1,5.0
COC(=O)NCC(c1cccnc1)N1CCN(c2ccccc2F)CC1 (centres undefined),-3.4
COc1cc(OC)cc(C(=O)NNc2nc3cc4c(cc3s2)OCO4)c1,5.8
CC(Oc1ccc2ccc(=O)oc2c1)C(=O)NCC1CCC(C(=O)O)CC1 (centres undefined),12.6
COc1ccc(-n2c(Cc3cccn3C)nnc2SCC(=O)Nc2nc(C)cs2)cc1,-5.0
CCOC(=O)c1ccc(NC(=O)[C@@H]2CCC(=O)N2C2OC(=O)c3c2ccc(OC)c3OC)cc1 (some centres undefined),5.2
CCCn1c(C(Cc2ccccc2)NC(=O)COC)nc2ccccc21 (centres undefined),-0.9
CCn1cc(C(=O)NCC2CCCO2)c(=O)c2cc(S(=O)(=O)N(C)C3CCCCC3)ccc21 (centres undefined),8.7
Cn1cccc1/C=C1/SC(=S)N(CC(=O)O)C1=O,31.9
CC(c1ccccc1)N1C(=O)c2ccccc2C1O (centres undefined),7.3
CCCCN1C(=O)C(O)(CC(=O)c2ccco2)c2cc(Br)ccc21 (centres undefined),4.6
CCc1nc(SCC(=O)N2CCC(C)CC2)c2c(=O)n(C)c(=O)n(C)c2n1,-3.8
CCOC(=O)c1ccc(N2CSC3=C(C#N)C(c4ccc(OC)cc4OC)CC(=O)N3C2)cc1 (centres undefined),3.3
Cc1ccc2c(c1)N(CC(=O)NCCCN1CC(C)CC(C)C1)C(=O)c1cccnc1O2 (centres undefined),6.7
CC(C)Cn1c(CN(Cc2ccccc2)Cc2ccccc2)nc2c1c(=O)n(C)c(=O)n2C,14.5
COc1ccccc1CNC(=O)CCC(=O)N1CC(C)Sc2ccccc21 (centres undefined),15.0
COc1cc2c(ccc3cc(OC)c(OC)c(O)c32)cc1O,15.5
Cc1c2cnn(CC(=O)N3CCOCC3)c(=O)c2c(C)n1Cc1ccc(F)cc1,7.0
C=CC(=O)OCCOCCOCCOCCOC(=O)C=C,7.1
CCCc1cc(C(=O)NCc2cccnc2)no1,8.9
Cc1csc(NC(=O)C2CCCN(S(=O)(=O)c3cccnc3)C2)n1 (centres undefined),15.4
O=CN/C=C/c1cc(O)ccc1O,6.9
CCOCCn1c(SCC(=O)OCc2ccccc2)nc2c1c(=O)[nH]c(=O)n2C,14.1
COc1ccc(-c2noc(N3CCCC(C(=O)Nc4ccccc4F)C3)n2)cc1 (centres undefined),-1.9
COc1ccc2[nH]cc(C(=O)C(=O)N3CCCCC3)c2c1,5.2
COc1ccc(S(=O)(=O)N2CCC(C(=O)Nc3c(F)cccc3F)CC2)cc1,0.0
CCCCCCCCCCC(C(=O)O)C1(C(=O)O)CCC(=O)O1 (centres undefined),-1.7
COc1ccc(CNC(=O)c2ccc(Cl)c(NC3=NC4CS(=O)(=O)CC4S3)c2)cc1 (centres undefined),12.8
COc1ccc(N(CC(=O)Nc2ccc3c(c2)OCCO3)S(=O)(=O)c2cccnc2)cc1,6.7
O=C(CCC1CCCC1)c1c(O)c2ccccc2oc1=O,6.2
Cc1ccc(Nc2cc(C)nc3nc(C)nn23)c(C)c1,12.5
O=C(O)c1cccc(N2C(=O)C3CC=C(Cl)CC3C2=O)c1 (centres undefined),14.9

# Given with the structure last: part of the list above.
Hedgehog	SMILES
14.5	CC(C)Cn1c(CN(Cc2ccccc2)Cc2ccccc2)nc2c1c(=O)n(C)c(=O)n2C
15.0	COc1ccccc1CNC(=O)CCC(=O)N1CC(C)Sc2ccccc21 (centres undefined)
15.5	COc1cc2c(ccc3cc(OC)c(OC)c(O)c32)cc1O
7.0	Cc1c2cnn(CC(=O)N3CCOCC3)c(=O)c2c(C)n1Cc1ccc(F)cc1

# (next part)
SMILES,Hedgehog
COc1ccc(-n2nnc3c(=O)n(CC(=O)N4CCC(C)CC4)cnc32)cc1,7.7
CNC(=O)C1CCN(S(=O)(=O)c2c(C)noc2/C=C/c2ccc(OC)cc2)CC1,7.0
CC1=C(C(=O)NCc2ccc3c(c2)OCO3)C2(CCC(C)CC2)OC1=O (centres undefined),7.1
COc1cc(/C=C/C(=O)c2ccccc2O)cc(OC)c1OC,3.5
COc1ccc(NC(=O)c2cc(S(=O)(=O)N3CCOCC3)cn2C)cc1Cl,11.8
Cc1ccc(NC(=O)C2C3C=CC4(CN(Cc5cccnc5)C(=O)C24)O3)cc1F (centres undefined),6.5
COc1cc2c(cc1OC)CN(C(=O)Cn1ccccc1=O)CC2,3.4
CC(=O)COC(=O)c1cccc(N2C(=O)C3C4C=CC(C4)C3C2=O)c1 (centres undefined),-17.4
O=C(O)CC(CCc1ccccc1)OC1OC(CO)C(O)C(O)C1O (centres undefined),44.8
CCOc1ccc(C2C(C(=O)Nc3ccc(F)cc3)=C(C)Nc3nc(CCCO)nn32)cc1 (centres undefined),10.0
COCCn1c(=NC(=O)CSC(C)=O)sc2cc(OC)ccc21,19.1
Cc1cc(C)c2c(n1)SCC(=O)N2CC(=O)Nc1cc(F)ccc1F,1.8
Clc1ccccc1C1CC(c2ccccc2)Nc2ncnn21 (centres undefined),8.3
COC(=O)c1cc(S(=O)(=O)NCc2ccc(F)cc2)cn1C,8.7
Oc1cccc(Nc2ccccc2)c1,8.9
CCc1cc2c(-c3ccccc3)cc(=O)oc2cc1OCC(=O)NCC1CCC(C(=O)O)CC1 (centres undefined),8.2
CCN(CC)c1ccc(NC(=O)Cn2cc3c(n2)CCC(C)C3)c(C)c1 (centres undefined),0.0
CCCCn1c(C(C)NC(=O)CCC)nc2ccccc21 (centres undefined),8.2
Cc1cc(C)c2sc(NC(=O)C3CC3)nc2c1,2.7
CCCCc1cc(=O)oc2cc(OCC(=O)N3CCC(C(=O)O)(c4ccccc4)CC3)ccc12,3.4
COc1cc2c(cc1OC)C[N+](C)(C)CC2,4.9
COc1cc2ccc(=O)oc2cc1OCC(O)C(C)(C)O (centres undefined),1.8
COc1ccc(OC)c(C2C(C(=O)Nc3ccc(F)cc3)=C(C)Nc3nc(CCCO)nn32)c1 (centres undefined),2.2
CCN(CC)CCNC(=O)Cn1nc(Cc2cccnc2)c2ccccc2c1=O,5.5
CCc1ccc(Nc2cc(C)nc3nc(C)nn23)cc1,15.0
O=C(O[C@@H](C(=O)O)[C@@H](OC(=O)c1ccccc1)C(=O)O)c1ccccc1,1.8
O=C(CCC(=O)N1CCOc2ccccc21)N1CCCCC1,7.0
COc1ccc(OC)c(S(=O)(=O)NCCc2cn3ccsc3n2)c1,6.8
COc1ccc(S(=O)(=O)NCCc2csc(-c3cccnc3)n2)cc1,2.7
Oc1c(C(c2ccccc2)N2CCc3ccccc3C2)sc2ncnn12 (centres undefined),4.4
CC1CC(O)C2C3(C)CCCC2(COC3=O)C12CCC1(CCOC1=O)O2 (centres undefined),8.6
COc1ccc(N2CCN(CCCNC(=O)CC3Oc4ccc(C)cc4NC3=O)CC2)cc1 (centres undefined),17.4
CCN(CC)C(=O)c1cc2c(=O)n3ccccc3nc2s1,-1.8
CCOc1ccccc1NC(=O)CSc1nc2ccccc2nc1N1CCCC1,7.0
CC(C)Cc1cc(C(=O)Nc2cccnc2)no1,6.2
Cc1cc(=O)oc2cc(OCC(=O)N3CC[C@@]4(O)CCCC[C@H]4C3)c(Cl)cc12,1.8
COc1ccc(/C=C2\Oc3cc(OCC(=O)N4CC(O)C[C@H]4C(=O)O)ccc3C2=O)cc1OC (some centres undefined),13.8
Cn1c(=O)cc(N2CCc3ccccc32)[nH]c1=O,1.8
Cc1ccnc(N2C(=O)c3ccccc3C2Nc2cccc(C)c2C)c1 (centres undefined),8.0
Cc1ccc(CSc2nc3ccncc3n2CC(=O)Nc2cc(C)cc(C)c2)cc1,-6.4
CCc1nnc(NC(=O)c2cccs2)s1,1.8
CCOC(=O)N1CCC(N2C(=O)c3ccc(C(=O)Nc4ccc(F)cc4F)cc3C2=O)CC1,8.0
Cn1c(=O)c2c(SC3CCCC3)nc(C3CC3)nc2n(C)c1=O,9.7
O=C(c1ccco1)N1CCN(c2ncccn2)CC1,9.5
Cc1cc(C)cc(NS(=O)(=O)c2ccc3c(c2)C(C)(C)C(=O)N3C)c1,15.0
CCn1c(=O)c2cc(C(=O)NCCN3CCOCC3)sc2c2ccccc21,7.1
O=C(Nc1nnc(S(=O)(=O)N2CCOCC2)s1)c1ccc(F)cc1,19.1
C#CCn1c(=NC(=O)c2ccc(Br)s2)sc2cccc(OC)c21,-0.9
CC(C)C[C@H](N)C(=O)N1CCC(C(=O)N[C@H](C(=O)NC(C)c2ccccc2)C(C)C)CC1 (some centres undefined),3.5
COc1ccc(OC)c(S(=O)(=O)NCc2cn3c(C)csc3n2)c1,8.9
CCc1nc(SCC(=O)NCc2ccco2)c2c(=O)n(C)c(=O)n(C)c2n1,7.1
Cc1cccc(C2CC(c3ccccc3)Nc3nc(N)nn32)c1 (centres undefined),20.0
O=C(NCC1CCCCC1)NCC1CCCCC1,1.8
COc1cccc(-n2nnc3c(=O)n(CC(=O)Nc4ccccc4C)cnc32)c1,14.1
CC(SC1=NCCS1)C(=O)Nc1nnc(-c2ccc(Cl)cc2)s1 (centres undefined),5.1
O=C(NCCCN1CCOCC1)c1cc2c([nH]c3ccccc32)c(-c2cccc(Br)c2)n1,1.7
O=C(NCc1ccccc1)c1ccc(Cl)c(NC2=NC3CS(=O)(=O)CC3S2)c1 (centres undefined),14.6
CCCCCC1C(=O)CCC1CC(=O)OC (centres undefined),4.9
COc1ccc(N2CCN(S(=O)(=O)c3c(C)nc4sccn4c3=O)CC2)cc1,1.7
CCCCc1cc(=O)oc2cc(OCC(=O)NC(Cc3c[nH]c4ccc(O)cc34)C(=O)O)ccc12 (centres undefined),5.1

# (more compounds)
SMILES,Hedgehog
CCN1CCN(C(c2cccs2)C(C)NS(=O)(=O)c2ccccc2)CC1 (centres undefined),14.5
CCOC(=O)C1CCN(S(=O)(=O)c2c(C)n(C)c(=O)n(C)c2=O)CC1,8.9
Cn1cccc1Cc1nnc(SCC(=O)NCc2ccccc2Cl)n1-c1ccc(F)cc1,4.2
Cc1ccccc1NS(=O)(=O)c1cc2c(cc1C)NC(=O)CO2,-1.9
CCOc1ccc(-c2cc(NC(=O)Cn3ncc4c3-c3ccccc3OC4)on2)cc1OCC,7.7
C=CCc1ccc(OC)c(OC)c1,3.5
Cn1c(=O)c(=O)n(C)c2cc(S(=O)(=O)CCC(=O)Nc3ccc(F)cc3)ccc21,3.4
CCn1c(C(=O)N2CCC(C(=O)NCCCSC3CCCCC3)CC2)cc2sccc21,9.1
O=C(Cn1cc2c(n1)CCCC2)NC1CCCCCC1,15.0
Cc1cc(C)cc(NC(=O)Cc2ccc(NC3=NC4CS(=O)(=O)CC4S3)cc2)c1 (centres undefined),-0.1
Cc1ccc(N2C(=O)c3ccc(C(=O)N4CCN(c5ccccc5F)CC4)cc3C2=O)cc1,19.1

# Assay outcomes: PubChem BioAssay, Broad Institute

# This is a subset (hit frequency here may not be typical).
